Rango dissoc inh: inhibitors of RanGTP-induced Rango-importin beta complex dissociation | hit rate 0.071% among 340,000 | Potency, µM (top dose mostly 46.1 µM), without a hit: at the highest dose activity change, negative = inhibition | AID 540253 | Biochemical FRET Rango-importin beta, RanGTP-induced dissociation | O95149+P62826; active means falling FRET ratio curve, often poorly fitted, with flat reads before Ran was added; inconclusive means other falling curves, or compound fluorescence or quenching; inactive means flat or rising ratio curve;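 note: potency is the fitted concentration of half-maximal effect; % of control where 0% means no effect; nearly all actives have a fitted effect of over 45% in size; -100% = wells without RanGTP and RCC1; the record marks most hits as doubtful in a second field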
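Compounds sat 5 min at room temperature with 0.1 uM Rango biosensor plus 0.25 uM importin beta, then FRET pre-read. RanGTP-RCC1 (0.6 uM Ran, 2mM GTP, 0.2 uM RCC1) added for 45 min, and the CFP/YFP post-read measured blocked complex dissociation.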
Rango complex inh: Rango-importin beta binding inhibition; Q14974; Rango CFP/YFP FRET sensor + importin beta, 45 min; Potency, µM (doses to about 92.2 µM), for the others: at the top dose inhibition of complex formation; hit rate 0.031% among 340,000; AID 540263; active = rising FRET ratio curve, often small or poorly fitted; inconclusive = mostly compound fluorescence or quenching in the first reads; inactive = flat curves in all reads;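 note: potency is the fitted concentration of half-maximal effect; 0% = DMSO wells and 100% = buffer wells lacking importin beta; nearly all actives have a fitted effect of over 15% in size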
Target sequence (Q14974 whole entry, looked up): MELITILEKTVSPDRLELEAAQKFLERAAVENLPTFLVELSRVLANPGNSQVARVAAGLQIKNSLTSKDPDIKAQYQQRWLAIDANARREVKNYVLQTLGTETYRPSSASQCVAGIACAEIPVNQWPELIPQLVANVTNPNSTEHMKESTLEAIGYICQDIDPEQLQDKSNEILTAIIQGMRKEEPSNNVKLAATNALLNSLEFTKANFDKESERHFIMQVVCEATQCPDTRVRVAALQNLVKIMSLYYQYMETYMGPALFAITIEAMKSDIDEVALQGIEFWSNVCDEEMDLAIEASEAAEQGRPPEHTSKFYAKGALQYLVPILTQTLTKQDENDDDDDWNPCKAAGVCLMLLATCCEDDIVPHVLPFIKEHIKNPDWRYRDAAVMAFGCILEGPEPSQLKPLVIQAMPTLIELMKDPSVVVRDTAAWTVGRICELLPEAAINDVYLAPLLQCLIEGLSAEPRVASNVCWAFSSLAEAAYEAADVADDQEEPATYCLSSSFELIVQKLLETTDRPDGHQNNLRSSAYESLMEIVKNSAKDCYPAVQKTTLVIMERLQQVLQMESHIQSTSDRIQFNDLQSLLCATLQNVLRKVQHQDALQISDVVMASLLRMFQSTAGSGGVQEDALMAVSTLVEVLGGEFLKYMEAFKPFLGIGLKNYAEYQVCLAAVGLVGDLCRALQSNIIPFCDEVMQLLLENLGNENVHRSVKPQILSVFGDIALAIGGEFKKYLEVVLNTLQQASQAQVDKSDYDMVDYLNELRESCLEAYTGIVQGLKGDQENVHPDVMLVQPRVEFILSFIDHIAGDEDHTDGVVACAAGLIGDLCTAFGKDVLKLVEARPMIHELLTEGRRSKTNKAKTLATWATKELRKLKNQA
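FRET biosensor Rango (snurportin 1 IBB between N-terminal EYFP and C-terminal Cerulean), 50 nM in PBS/1 mM DTT/0.02% Tween-20/0.1% BSA, preincubated 5 min RT with compound; 0.125 microM importin beta added, 45 min RT, CFP/YFP FRET ratio read.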
miR-21 reporter: raises the signal of a miR-21 reporter. Potency, µM (top dose mostly 38.3 µM), without a hit: at the highest dose reporter change, positive = more light. AID 2288. HeLa miR-21 FLuc reporter, luciferase, 48 h. 340,000 tested, under 10 active; active = well fitted rising curve with a large enough effect; inconclusive = small, poorly fitted or top-dose-only effect; inactive = no such curve, though single readings can be large or run the other way;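 note: % of control where 0% means no effect; miR-21 action dims this reporter so a rising signal means less miR-21 action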
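Using DMEM plus 10% FBS, HeLa miR-21-FLuc cells are incubated with test compounds (final up to about 40uM) for 48 hours; firefly luciferase signal is then imaged following reagent-mediated lysis.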
GLA inh pH 4.5: alpha-galactosidase A (human) inhibition, pH 4.5; P06280; purified enzyme, 4-MU-alpha-Gal fluorescence, pH 4.5; activity change, negative = inhibition, % at 105 µM; 230,000 tested, under 10 active; AID 1467; inconclusive = small, poorly fitted or top-dose-only inhibition, or a rising curve; inactive = flat fitted curve, though single readings scatter; no compound was filed as active;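 note: 0% = full activity with enzyme and -100% = basal without enzyme; dose as in the result columns while the protocol names 77 µM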
Active calls of the source: *; ? = inconclusive; . = no result given. Not all compounds are listed, so the mix of outcomes need not match the whole.

1	CCc1nnc(NC(=O)CN2CCCC(C)C2)s1 (centres undefined)
2	O=C(Oc1coc(CSc2nnc(NC(=O)c3cccs3)s2)cc1=O)c1ccccc1
3	CCCN1CCC(=NNC(=O)c2ccc(Br)o2)CC1
4	CC1Cc2ccccc2N1C(=O)Cn1c(=O)oc2cc(S(=O)(=O)N3CCCCC3)ccc21 (centres undefined)
5	CC(C)CCn1c(SCCc2ccccc2)nc2c1c(=O)[nH]c(=O)n2C
6	CCOC(=O)c1c(NC(=O)COC(=O)CCNS(=O)(=O)c2ccccc2)sc(C(=O)N(C)C)c1C
7	CC(CNC(=O)c1cc(Cl)ccc1[N+](=O)[O-])NC(=O)c1cc(Cl)ccc1[N+](=O)[O-] (centres undefined)
8	CCS(=O)(=O)N1CCC(C(=O)NCCN2CCN(Cc3ccccc3)CC2)CC1

assay / compound	1	2	3	4	5	6	7	8
Rango dissoc inh	?	1%	6%	23%	-4%	3%	-10%	28%
GLA inh pH 4.5	.	4	-2	-7	4	.	-3	13
Rango complex inh	5.5%	-0.8%	-4.5%	-0.5%	0.4%	-0.5%	0.2%	-3.6%
miR-21 reporter	0%	-27%	-42%	5%	-21%	.	-1%	-8%

9	Cc1cccn2c(=O)nc(SCC(=O)N3CCC(C)CC3)nc12
10	O=C(O)c1cccc(-n2cccc2/C=C\[N+](=O)[O-])c1
11	O=C(O)CSc1sc(=S)sc1SCC(=O)O
12	CSc1ccc(S(=O)(=O)NCC(=O)OC2CCOC2=O)cc1[N+](=O)[O-] (centres undefined)
13	COc1cc(C(=O)Nc2nnc(CC(=O)N3CCOCC3)s2)cc(OC)c1OC
14	O=C(Cc1ccc(Cl)cc1)NCCS(=O)(=O)N1CCN(c2ccccc2)CC1
15	CCCc1ccc2oc(C(=O)N3CCN(c4cnccn4)CC3)c(C)c2c1
16	S=C(NCCC1=CCCCC1)Nc1ccc(Cl)cc1

assay / compound	9	10	11	12	13	14	15	16
Rango dissoc inh	0%	-8%	-1%	19%	11%	12%	-13%	0%
GLA inh pH 4.5	.	1	-1	.	-6	.	.	-1
Rango complex inh	-0.8%	0.3%	0.0%	2.6%	0.7%	4.2%	-3.5%	-5.0%
miR-21 reporter	.	2%	1%	.	-6%	.	-6%	-21%

17	CCCS(=O)(=O)N1CCN(C(=O)c2ccc(-c3ccccc3)cc2)CC1
18	O=C(C1CCC(CNS(=O)(=O)c2cccc3cccnc23)CC1)N1CCc2ccccc21 (centres undefined)
19	CCN(CC)CCn1cnc2c1c(=O)[nH]c(=O)n2Cc1ccccc1
20	CCSc1nc(O)c(C2OC(=O)c3c2ccc(OC)c3OC)c(=O)n1CC (centres undefined)
21	Cc1cc(C)n(-c2nc3c(c(=O)[nH]c(=O)n3C)n2CC(O)c2ccccc2)n1 (centres undefined)
22	COc1ccc2oc(C(=O)Nc3nccs3)c(C)c2c1
23	O=S(=O)(c1ccccc1)N1CCN(Cc2ccccc2C(F)(F)F)CC1
24	Cc1ccc(C(C(=O)Nc2ccc(C(C)C)cc2)N(C)C(=O)c2ccc(=O)[nH]c2)cc1 (centres undefined)

assay / compound	17	18	19	20	21	22	23	24
Rango dissoc inh	6%	6%	-12%	-13%	1%	9%	-15%	5%
GLA inh pH 4.5	-1	-22	.	.	-1	.	-12	-3
Rango complex inh	3.1%	0.9%	?	-0.4%	-1.6%	-3.6%	0.1%	3.4%
miR-21 reporter	6%	8%	0%	0%	1%	.	-1%	3%

25	CCOc1ccc(N2CC(C(=O)NCc3ccc(C)n3C)CC2=O)cc1 (centres undefined)
26	CCCS(=O)(=O)N1CCC(C(=O)N2CCN(C(=O)OCC)CC2)CC1
27	CCOC(=O)C1CCN(C2CCN(Cc3nc(-c4ccccc4)no3)CC2)CC1
28	CC(C)(O)C(=O)NN(Cc1ccccc1)c1ccccc1
29	CCn1c(SCC(=O)NC2CCCCC2)nnc1-c1cccs1
30	Cc1nc(NCc2ccccc2)c2cc[nH]c2n1
31	Cc1onc(-c2ccccc2)c1CNC(=O)CN1C(=O)c2ccccc2C1=O
32	COc1ccc(CN2CCN(C(=O)CCC(=O)c3ccc(C)s3)CC2)cc1OC

assay / compound	25	26	27	28	29	30	31	32
Rango dissoc inh	6%	-6%	1%	6%	-14%	5%	-11%	-10%
GLA inh pH 4.5	1	-3	-3	3	-3	0	0	.
Rango complex inh	-3.6%	-1.4%	2.2%	-0.2%	1.1%	0.0%	-2.9%	-1.1%
miR-21 reporter	-3%	-6%	4%	-6%	-6%	-20%	0%	.

A draw from above in order of count of non-hydrogen atoms, highest first.
6	CCOC(=O)c1c(NC(=O)COC(=O)CCNS(=O)(=O)c2ccccc2)sc(C(=O)N(C)C)c1C
18	O=C(C1CCC(CNS(=O)(=O)c2cccc3cccnc23)CC1)N1CCc2ccccc21 (centres undefined)
7	CC(CNC(=O)c1cc(Cl)ccc1[N+](=O)[O-])NC(=O)c1cc(Cl)ccc1[N+](=O)[O-] (centres undefined)
14	O=C(Cc1ccc(Cl)cc1)NCCS(=O)(=O)N1CCN(c2ccccc2)CC1
15	CCCc1ccc2oc(C(=O)N3CCN(c4cnccn4)CC3)c(C)c2c1
23	O=S(=O)(c1ccccc1)N1CCN(Cc2ccccc2C(F)(F)F)CC1

assay / compound	6	18	7	14	15	23
Rango dissoc inh	3%	6%	-10%	12%	-13%	-15%
GLA inh pH 4.5	.	-22	-3	.	.	-12
Rango complex inh	-0.5%	0.9%	0.2%	4.2%	-3.5%	0.1%
miR-21 reporter	.	8%	-1%	.	-6%	-1%

One compound at a time, as listed above. Order of values: Rango dissoc inh	GLA inh pH 4.5	Rango complex inh	miR-21 reporter
Cc1onc(-c2ccccc2)c1CNC(=O)CN1C(=O)c2ccccc2C1=O is entered as -11%	0	-2.9%	0%
CCOC(=O)C1CCN(C2CCN(Cc3nc(-c4ccccc4)no3)CC2)CC1 is entered as 1%	-3	2.2%	4%
COc1ccc(CN2CCN(C(=O)CCC(=O)c3ccc(C)s3)CC2)cc1OC is entered as -10%	.	-1.1%	.
CCn1c(SCC(=O)NC2CCCCC2)nnc1-c1cccs1 is entered as -14%	-3	1.1%	-6%
CC(C)(O)C(=O)NN(Cc1ccccc1)c1ccccc1 is entered as 6%	3	-0.2%	-6%

(continued)
33	COc1cc(C(C(=O)NC2CCCCC2)N(C(=O)c2snc(C(N)=O)c2N)c2ccc(C)cc2)ccc1O (centres undefined)
34	Cc1coc2cc3oc(=O)c(CCC(=O)NCCCN4CCCC4=O)c(C)c3cc12
35	Cc1nc2cc(CO)ccc2n1C
36	O=C(OCC(=O)N1CCC(c2ccccc2)=N1)c1ccc([N+](=O)[O-])s1
37	CC(C)N1C(=O)c2ccccc2C1C(=O)NC1CCCCCC1 (centres undefined)
38	COc1ccc(C(c2nnnn2Cc2ccccc2)N2CCN(c3ccccc3)CC2)cc1 (centres undefined)
39	Cc1occc1-c1nnc(SCC(=O)Nc2ccccc2)n1CCc1ccccc1
40	O=C(NN1CCOCC1)c1ccc(Cl)s1

assay / compound	33	34	35	36	37	38	39	40
Rango dissoc inh	?	15%	1%	3%	11%	-22%	-7%	-12%
GLA inh pH 4.5	.	.	-11	.	1	-13	1	7
Rango complex inh	-4.8%	1.1%	-2.1%	-2.4%	3.4%	-0.7%	0.6%	0.3%
miR-21 reporter	-8%	-1%	-5%	.	0%	6%	4%	-1%

41	O=C(CCc1nnc(Cc2ccc3c(c2)OCO3)o1)NCc1nc2ccccc2s1
42	CC(=O)Nc1nnc(SCc2ccccc2F)s1
43	O=S(=O)(Nc1ccc2cn[nH]c2c1)c1ccc(C(F)(F)F)cc1
44	COc1ccc(CN2CCn3nc(C(=O)NC(C)C)cc3C2=O)cc1
45	COc1ccc(N2C(=O)CC3(CCCC3)CC2=O)cc1
46	Cc1ccc2cc(/C=C/C(=O)c3ccco3)c(Cl)nc2c1
47	O=C(N/N=C/c1cccc([N+](=O)[O-])c1)C(=O)N1CCCCCC1
48	COc1ccc(C(=O)NCCCN2CCOCC2)cc1
49	CCOc1ccc(CN(CC)C(=O)c2ccc3c(c2)[nH]c(=O)c(=O)n3CC)cc1OC
50	Cc1ccc(NC(=O)N2CCCC(c3nc(-c4ccc(F)cc4)no3)C2)cc1 (centres undefined)
51	C[C@H]1CN(CCc2ccccc2)C(=O)[C@@H]1CC(=O)NCc1ccccc1

assay / compound	41	42	43	44	45	46	47	48	49	50	51
Rango dissoc inh	-21%	1%	-1%	-19%	-16%	0%	15%	11%	-16%	1%	20%
GLA inh pH 4.5	5	5	.	1	4	10	.	.	.	7	.
Rango complex inh	-4.8%	-1.6%	-2.4%	?	-3.3%	-0.1%	-1.6%	-0.1%	1.3%	-1.1%	-0.4%
miR-21 reporter	-9%	-58%	.	-4%	-9%	0%	-3%	-13%	0%	-19%	-24%

Bioassay records: PubChem, National Center for Advancing Translational Sciences (NCATS)
